NPSR antag – qHTS Assay for Antagonists of the Neuropeptide S Receptor: cAMP Signal Transduction; CHO-NPSR cells, cAMP TR-FRET, antagonist mode; Potency, µM (doses to about 38.3 µM), for the others: at the highest dose activity change, negative = inhibition, usual class: inhibitors; 1% of 220,000 active; AID 1461, 2008; note: % is set by controls: 0 for no effect and ±100 for the full control effect; nearly all actives have a fitted effect of over 50% in size; many of its hits are not listed in these tables
Target sequence (Q6W5P4 whole entry, looked up): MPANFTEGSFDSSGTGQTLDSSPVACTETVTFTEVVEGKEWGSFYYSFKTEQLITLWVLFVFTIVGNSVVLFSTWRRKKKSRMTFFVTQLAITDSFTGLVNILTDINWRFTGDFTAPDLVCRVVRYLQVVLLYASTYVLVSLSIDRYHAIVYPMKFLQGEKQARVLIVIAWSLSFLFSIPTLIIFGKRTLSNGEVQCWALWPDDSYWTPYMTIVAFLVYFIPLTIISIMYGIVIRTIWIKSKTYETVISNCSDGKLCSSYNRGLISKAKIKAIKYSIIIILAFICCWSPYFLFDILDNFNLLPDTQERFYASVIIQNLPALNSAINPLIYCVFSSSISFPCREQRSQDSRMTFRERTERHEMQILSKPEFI
Epigenetic derep – Quantitative High-Throughput Screen for Regulators of Epigenetic Control | AID 1865, 2009 | Potency, µM (top dose mostly 53.9 µM), inactives show top-dose GFP activation, actives largely listed as activators | murine LDR cells, GFP reporter derepression, 30 h | 0.2% of 280,000 active; note: % of control where 0% means no effect; nearly all actives have a fitted effect of over 60% in size
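Murine LDR cells bearing a silenced CMV-driven GFP reporter were exposed to compound for 30 h at 37 C. After PBS washes, GFP-positive cells (20-120 um objects) counted by laser-scanning microplate cytometry.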
GLA spleen mod – qHTS Assay for Inhibitors and Activators of Human alpha-Galactosidase From Spleen Homogenate; Alpha-galactosidase A (Homo sapiens), P06280; Potency, µM (series often up to 80 µM), for inactives: at the top dose activity change, negative = inhibition, hits mostly inhibitors; 0.008% of 240,000 active; human spleen homogenate, 4MU-alpha-Gal fluorescence, 40 min;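 note: 0% = enzyme with vehicle and -100% = no enzyme basal signal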
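Inhibition or activation of alpha-galactosidase in human spleen homogenate is scored by 4-MU fluorescence after 40 min at 37C, pH 5.0, with 1 mM substrate. AC50s come from concentration-response fitted to the Hill equation.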
The depositor's hits bear a star; x = no result given; & = joins results of further samples; [ ] = another dose, or the depositor's remark. Calls come from the whole dose curve; as a rule, active = well fitted curve in the direction sought with a large enough effect; inconclusive = small, poorly fitted or top-dose-only effect, or another doubt; inactive = no such curve, though single readings can be large; an effect the other way counts as inactive or inconclusive. Potency is the fitted concentration of half-maximal effect. A portion of the library (hit frequency here may not be typical).

Each structure is followed by: NPSR antag | Epigenetic derep | GLA spleen mod
- CN1[C@@H]2CC[C@H]1CC(OC(c1ccccc1)c1ccccc1)C2 (stereo partly specified)
    x | -0.8% | 4.4%
- C#C[C@]1(O)CC[C@H]2[C@H]3CCC4=Cc5oncc5C[C@]4(C)[C@@H]3CC[C@]21C
    x | 0.4% | -3.8%
- c1ccncc1
    x | x | 0.9%
- CCN1CCN(C(=O)N[C@H](C(=O)N[C@@H]2C(=O)N3C(C(=O)O)=C(CSc4nnnn4C)CS[C@@H]23)c2ccc(O)cc2)C(=O)C1=O
    x | 1.4%[16.9 µM] | -1.6%[29.1 µM]
- COC(=O)[C@@H]1[C@@H]2C[C@H]3c4[nH]c5ccccc5c4CCN3C[C@@H]2CC[C@@H]1O
    x | -0.8% | 11.6%
- Cc1nnc(SCC2=C(C(=O)O)N3C(=O)C(NC(=O)Cn4cnnn4)[C@@H]3SC2)s1 (stereo partly specified)
    x | 0.8% | -9.0%
- CN1[C@@H]2CC(OC(=O)[C@H](CO)c3ccccc3)C[C@@H]1[C@H]1O[C@H]12 (stereo partly specified)
    x | -1.6% | 0.5%
- CN1[C@@H]2CC[C@@H]1CC(OC(=O)[C@H](CO)c1ccccc1)C2 (stereo partly specified)
    x | 1.0% | 6.4%
- COC(=O)[C@H]1[C@H]2C[C@H]3c4[nH]c5ccccc5c4CCN3C[C@H]2CC[C@@H]1O
    -5.4%[46.1 µM] | -0.2% | -2.8%
- CN(C)CCOC(c1ccccc1)c1ccccc1 (tested in a mixture with another compound)
    0.3% | -3.7% | -29.3%
- CCN(CC)CCOC(=O)[C@@H](Cc1cccc2ccccc12)C[C@@H]1CCCO1
    x | 4.1%[16.9 µM] | -8.0%[29.1 µM]
- O=C(O)CCc1cc(I)c(Oc2ccc(O)c(I)c2)c(I)c1
    -32.1% | 2.3% | 4.0%
- O=C(O)[C@H]1CCCN1
    x | 0.0% | 14.0%&10.8%
- COC(=O)C1C(O)CCC2CN3CCc4c([nH]c5ccccc45)C3CC21 (stereo unspecified)
    -3.3% | 0.0% | 3.8%
- C=C1c2c(Cl)ccc(O)c2C(O)=C2C(=O)[C@]3(O)C(O)=C(C(N)=O)C(=O)C(N(C)C)C3C(O)C12 (stereo partly specified)
    x | -0.5% | 1.8%

As a working copy, part of the list above.
Each structure is followed by: NPSR antag | Epigenetic derep | GLA spleen mod
- CCN(CC)CCOC(=O)[C@@H](Cc1cccc2ccccc12)C[C@@H]1CCCO1
    x | 4.1%[16.9 µM] | -8.0%[29.1 µM]
- O=C(O)CCc1cc(I)c(Oc2ccc(O)c(I)c2)c(I)c1
    -32.1% | 2.3% | 4.0%
- O=C(O)[C@H]1CCCN1
    x | 0.0% | 14.0%&10.8%
- COC(=O)C1C(O)CCC2CN3CCc4c([nH]c5ccccc45)C3CC21 (stereo unspecified)
    -3.3% | 0.0% | 3.8%
- C=C1c2c(Cl)ccc(O)c2C(O)=C2C(=O)[C@]3(O)C(O)=C(C(N)=O)C(=O)C(N(C)C)C3C(O)C12 (stereo partly specified)
    x | -0.5% | 1.8%

Following part.
Each structure is followed by: NPSR antag | Epigenetic derep | GLA spleen mod
- CNCCCC12CCC(c3ccccc31)c1ccccc12
    -7.0% | 1.1% | -5.2%
- CC/C(=C(/c1ccccc1)c1ccc(OCCN(C)C)cc1)c1ccccc1
    x | 7.6% | 0.6%
- CN1CCc2cccc3c2[C@H]1Cc1ccc(O)c(O)c1-3
    -2.4% | 0.0%&-1.0%&1.4% | -0.4%&13.0%&3.0%
- Nc1ccc(O)cc1
    x | x | -4.1%
- CCOC(C)OCC
    x | x | -0.8%
- CN1C2CC(OC(=O)C(CO)c3ccccc3)C[C@@H]1[C@H]1OC21 (stereo partly specified)
    x | 1.3% | 8.3%
- O=C(O)Cc1cc(I)c(Oc2ccc(O)c(I)c2)c(I)c1
    -45.6% | 0.9% | -3.6%
- CN1[C@@H]2CC(OC(=O)[C@H](CO)c3ccccc3)C[C@H]1[C@@H]1O[C@@H]12 (stereo partly specified)
    -6.4%&22.6% | -1.7%&1.1% | -10.3%&4.0%

Fetched by structure from the list above (5):
Each structure is followed by: NPSR antag | Epigenetic derep | GLA spleen mod
- CN1C2CC(OC(=O)C(CO)c3ccccc3)C[C@@H]1[C@H]1OC21 (stereo partly specified)
    x | 1.3% | 8.3%
- CN1[C@@H]2CC(OC(=O)[C@H](CO)c3ccccc3)C[C@H]1[C@@H]1O[C@@H]12 (stereo partly specified)
    -6.4%&22.6% | -1.7%&1.1% | -10.3%&4.0%
- Nc1ccc(O)cc1
    x | x | -4.1%
- CCOC(C)OCC
    x | x | -0.8%
- O=C(O)Cc1cc(I)c(Oc2ccc(O)c(I)c2)c(I)c1
    -45.6% | 0.9% | -3.6%

Arranged by the number under GLA spleen mod (highest first): 3 from the list above
Each structure is followed by: NPSR antag | Epigenetic derep | GLA spleen mod
- CC/C(=C(/c1ccccc1)c1ccc(OCCN(C)C)cc1)c1ccccc1
    x | 7.6% | 0.6%
- Nc1ccc(O)cc1
    x | x | -4.1%
- CNCCCC12CCC(c3ccccc31)c1ccccc12
    -7.0% | 1.1% | -5.2%

Screens (PubChem)
